# G9a block = inhibitors of human histone lysine methyltransferase G9a; Q96KQ7; G9a H3K9 monomethylation, AlphaScreen, 2 h; Potency, µM (series often up to 102 µM), inactives show top-dose activity, negative = inhibition, actives largely listed as inhibitors; actives 8.8% (n = 350,000); also: % is scaled to controls: 0 for no effect and ±100 for the full control effect; nearly all actives have a fitted effect of over 75% in size
#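 Compounds were preincubated with 20 nM G9a for 15 min, after which biotinylated H3K9 peptide (500 nM) and SAM (20 uM) started a 2 h room-temperature reaction. Monomethylated product was quantified by antibody-based AlphaScreen chemiluminescence.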
# POLH inh = DNA polymerase eta (human) inhibition; Q9Y253; recombinant Pol eta, fluorescent DNA replication assay; Potency, µM (top dose mostly 114 µM), for inactives: at the highest dose activity change, negative = inhibition, most hits filed as inhibitors; actives 1.2% (n = 390,000); AID 588591; also: % is scaled to controls: 0 for no effect and ±100 for the full control effect
#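 Pol eta (10 nM) was preincubated with compounds for 15 min at room temperature, after which fluorescent replication substrate (50 nM final) was added to start the reaction. Fluorescence was read kinetically at 0 and 10 min.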
# BLM inh = inhibitors of human Bloom syndrome helicase BLM; P54132; recombinant BLM DNA unwinding, fluorescence dequenching; Potency, µM (doses to about 56.1 µM), inactives show at the top dose activity change, negative = inhibition, actives largely listed as inhibitors; actives 0.2% (n = 350,000);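 also: plate controls were vehicle for no effect and no enzyme for full effect; nearly all actives have a fitted effect of over 35% in size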
# POLK inh = DNA polymerase kappa (human) inhibition | actives 0.53% (n = 400,000) | AID 588579 | Potency, µM (top dose mostly 107 µM), for the others: at the highest dose activity, negative = inhibition, actives largely listed as inhibitors | purified Pol kappa, fluorescent DNA synthesis assay, 10 min; also: % is scaled to controls: 0 for no effect and ±100 for the full control effect
#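 Here, compound and 10 nM enzyme are combined for 15 min at room temperature; adding 50 nM substrate (final) starts DNA synthesis, tracked by fluorescence at 0 and 10 min against buffer-only wells.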
# POLI inh = inhibitors of human DNA polymerase iota. Q9UNA4. AID 588590. actives 1% (n = 390,000). Potency, µM (highest dose often 115 µM), without a hit: at the highest dose activity, negative = inhibition, usual class: inhibitors. Pol iota fluorescent replication assay, 10 min
# Target sequence (Q9UNA4 whole entry, looked up): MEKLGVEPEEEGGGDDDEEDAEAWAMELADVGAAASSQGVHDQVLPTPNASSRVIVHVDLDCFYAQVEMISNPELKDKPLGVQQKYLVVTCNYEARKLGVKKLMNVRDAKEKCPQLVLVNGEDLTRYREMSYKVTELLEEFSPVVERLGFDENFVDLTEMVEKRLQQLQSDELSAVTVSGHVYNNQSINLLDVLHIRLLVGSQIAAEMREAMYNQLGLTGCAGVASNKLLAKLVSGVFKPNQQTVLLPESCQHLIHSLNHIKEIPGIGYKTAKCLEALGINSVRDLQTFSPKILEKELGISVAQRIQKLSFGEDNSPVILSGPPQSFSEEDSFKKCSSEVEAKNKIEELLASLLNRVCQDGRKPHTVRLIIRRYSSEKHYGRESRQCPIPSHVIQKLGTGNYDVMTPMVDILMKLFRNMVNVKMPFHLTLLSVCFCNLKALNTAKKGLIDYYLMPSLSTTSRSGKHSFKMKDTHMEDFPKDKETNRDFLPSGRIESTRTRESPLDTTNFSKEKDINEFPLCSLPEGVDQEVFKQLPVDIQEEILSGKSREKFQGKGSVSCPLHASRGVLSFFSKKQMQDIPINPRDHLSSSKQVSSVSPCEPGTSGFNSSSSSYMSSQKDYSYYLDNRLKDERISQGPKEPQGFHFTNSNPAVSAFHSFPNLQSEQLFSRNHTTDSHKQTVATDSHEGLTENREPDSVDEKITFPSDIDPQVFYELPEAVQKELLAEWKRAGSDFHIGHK
#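 Fluorescent replication assay read twice, at 0 min and 10 min after adding 50 nM (final) substrate. Enzyme (10 nM) and compounds were first incubated 15 min at room temperature; enzyme-free buffer wells were negative controls.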
# Pol beta inh = blocks human DNA polymerase beta activity; P06746; Pol beta primer extension/strand displacement, fluorescence kinetic; Potency, µM (series often up to 114 µM), for the others: at the top dose activity change, negative = inhibition, usual class: inhibitors; actives 1.3% (n = 340,000); AID 485314; also: % is scaled to controls: 0 for no effect and ±100 for the full control effect
#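 Curves were derived by four-parameter Hill fits of normalized qHTS data. The kinetic fluorescent primer-extension read was taken at 0 and 10 min after 50 nM substrate, following a 15 min room-temperature preincubation of 10 nM enzyme with compounds.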
# APEX1 inh = blocks human APE1 abasic DNA cleavage. P27695. recombinant APE1, TAMRA/BHQ-2 abasic DNA cleavage fluorescence. Potency, µM (titrated, usually from 65.8 µM), for the others: top-dose activity change, negative = inhibition, most hits filed as inhibitors. actives 0.35% (n = 350,000). AID 2517;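 also: plate controls were vehicle for no effect and reference inhibitor for full effect; nearly all actives have a fitted effect of over 55% in size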
# Target sequence (P27695 whole entry, looked up): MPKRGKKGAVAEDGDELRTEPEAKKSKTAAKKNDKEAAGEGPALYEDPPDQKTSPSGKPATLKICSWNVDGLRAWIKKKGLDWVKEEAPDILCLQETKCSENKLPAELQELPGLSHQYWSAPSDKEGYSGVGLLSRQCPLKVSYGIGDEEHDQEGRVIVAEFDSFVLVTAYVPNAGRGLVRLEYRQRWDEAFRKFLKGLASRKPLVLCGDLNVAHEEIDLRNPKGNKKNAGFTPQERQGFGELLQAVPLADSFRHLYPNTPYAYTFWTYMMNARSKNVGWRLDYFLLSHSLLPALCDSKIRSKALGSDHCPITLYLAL
#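 Substrate: short duplex with […] THF abasic site, 5'-TAMRA and 3'-BHQ-2, 50 nM final. APE1 at 0.75 nM, preincubated 15 min RT with compound. Fluorescence increase from first to third read measured activity.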
# * hit, by the source's call; ? = inconclusive; nt = no result given; [ ] = dose if it differs, or a comment. Calls follow the shape of the dose curve; as a rule, active = well fitted curve in the direction sought with a large enough effect; inconclusive = small, poorly fitted or top-dose-only effect, or another doubt; inactive = no such curve, though single readings can be large; an effect the other way counts as inactive or inconclusive. Potency is read from the fitted curve at half-maximal effect. Only part of the results is shown, so the mix of outcomes need not match the whole.
SMILES,G9a block,POLH inh,BLM inh,POLK inh,POLI inh,Pol beta inh,APEX1 inh
COc1cc(OC)c(NC(=O)N2CC3CCCN3c3ccccc32)cc1Cl (configuration not stated),8.91µM*,-7.7%,-7.7%,-37.0%,-27.1%,?,nt
Cc1ccc2c(c1)C(O)(CC(=O)c1cccc(-n3cccc3)c1)C(=O)N2 (configuration not stated),-10.0%[59 µM],-22.5%,-4.8%,5.7%,79.7%[activator],5.1%,-1.9%
Cc1ccc(C(=O)N2C(=S)C(c3ccc(F)cc3)=NC23CCN(C)CC3)cc1,7.94µM*,2.0%,2.3%,-4.2%,12.1%,3.5%[57.1 µM],-1.3%
CN(Cc1cn(-c2ccccc2)nc1-c1ccc2c(c1)OCO2)Cc1nccn1C,44.7µM*,-8.5%,-5.5%,-7.0%,5.1%,-0.7%,0.6%
O=C(CNCC1CCCO1)Nc1ccccc1N1CCOCC1 (configuration not stated),12.6µM*,3.2%,-2.7%,-8.3%,18.1%,26.8%,-7.9%
Cc1cc(NC(=O)CSc2nnc(-c3cccc(Cl)c3)o2)no1,nt,-0.7%,0.1%,-12.9%,28.3%,16.6%,12.6%
CCCCc1nc2ccccc2c(NC(=O)CN2CCCC2)c1CCC,20µM*,-5.7%,3.4%,-7.4%,15.8%,-13.5%,5.3%
CS(=O)(=O)c1ccc(-c2nnc(NC(=O)c3cccc(N4C(=O)CCC4=O)c3)o2)cc1,15.8µM*,-5.8%,nt,6.0%,6.9%,nt,-2.7%
C=CCN(CC=C)C(=S)NC(=O)c1ccc(OC)c(Br)c1,10.3%[0.0925 µM],8.4%,-2.6%,-9.2%,-3.2%,25.2%,24.1%
c1cnc2cc(-c3ccsc3)ncc2c1,9.4%[0.501 µM],2.3%,nt,-11.7%,4.8%,nt,-7.6%
O=C(COC(=O)C12CC3CC(CC(C3)C1)C2)NCc1ccco1,10.0%[12.7 µM],?,-19.5%,?,?,14.1µM*,-5.9%
CCN1CCN(C(=S)Nc2sc(C)c(-c3ccccc3)c2C(=O)OC)CC1,-6.5%[0.501 µM],-9.6%,-7.4%,-11.3%,15.8%,13.9%,-22.2%
O=C(/C=C/c1ccccc1)CCN1CCOCC1,nt,-6.7%,nt,-11.1%,?,nt,nt
O=C(CSc1nnc(C2CCCCC2)n1-c1ccccc1)NCc1ccco1,-9.4%[12.7 µM],-2.4%,-1.7%,-13.0%[60.1 µM],?,-2.8%,-1.8%
Cc1nc(NC(=O)c2ccccc2)sc1Cc1ccc2c(c1)OCO2,-5.5%[59 µM],-17.4%,-5.5%,-3.7%,15.3%,2.7%,22.6%

# Full records as entered above.
# Cc1ccc2c(c1)C(O)(CC(=O)c1cccc(-n3cccc3)c1)C(=O)N2 (configuration not stated) as listed: G9a block = -10.0%[59 µM]; POLH inh = -22.5%; BLM inh = -4.8%; POLK inh = 5.7%; POLI inh = 79.7%[activator]; Pol beta inh = 5.1%; APEX1 inh = -1.9%
# c1cnc2cc(-c3ccsc3)ncc2c1 as listed: G9a block = 9.4%[0.501 µM]; POLH inh = 2.3%; BLM inh = nt; POLK inh = -11.7%; POLI inh = 4.8%; Pol beta inh = nt; APEX1 inh = -7.6%

# (listing goes on)
SMILES,G9a block,POLH inh,BLM inh,POLK inh,POLI inh,Pol beta inh,APEX1 inh
COc1ccc(OC)c(CN2CCN(Cc3cccc4ccccc34)CC2)c1,3.98µM*,-24.3%,7.0%,-6.0%,4.1%,0.7%,-5.5%
CC(C)c1noc(-c2ccccc2OCC(=O)Nc2ccccc2[N+](=O)[O-])n1,10µM*,-21.0%,-19.5%,-16.1%,-17.7%,0.3%,nt
CNc1nc(-c2c(C)n(C)c3ccc(OC)cc23)cs1,44.7µM*,-0.4%,-7.6%,-9.0%,201.4%[activator],-8.6%,39.8%
Cc1ccccc1OCc1ccc(-c2nc(C#N)c(N3CCN(C)CC3)o2)o1,11.2µM*,-22.4%,-2.8%,4.9%,?,-16.1%,nt
CSc1ccc(-c2nc3c(C)cccn3c2Nc2ccc3c(c2)OCCO3)cc1,7.08µM*,-28.0%,-9.8%,0.0%,4.7%,-8.7%,nt
O=[N+]([O-])c1cccc(C=NN2CCCCCC2)c1,nt,?,nt,-19.5%,72.5%[activator],nt,nt
Cc1cccc2sc(N(CCCN(C)C)C(=O)c3ccc(C(=O)c4ccccc4)cc3)nc12,50.1µM*,-26.9%,14.0%,-1.7%,4.8%,0.3%,24.3%
O=[N+]([O-])c1ccc(/C=N/N2CCCCC2)cc1,26.7%[2.33 µM],?,-3.4%,9.2%,48.3%[activator],2.7%,-9.7%
CC(CN1CCOCC1)OC(=O)c1ccc(Br)cc1 (configuration not stated),40.1%,-10.0%,-2.9%,1.8%,6.7%,40.8%,1.1%
O=C(Nc1nccs1)C(F)(F)C(F)(F)C(F)(F)C(=O)Nc1nccs1,3.16µM*,-6.0%,-0.1%,-36.3%,49.7%[activator],-3.9%,-4.8%
Cc1n[nH]c(=S)n1/N=C/c1cccc(OCc2ccccc2)c1,nt,-8.0%,0.4%,2.4%,35.7%[activator],7.0%,6.3%
Cn1nnnc1Sc1ncnc2scc(-c3ccccc3C(F)(F)F)c12,-6.9%[0.501 µM],-4.4%,nt,6.4%,-9.1%,nt,27.8%
COCCN1C=C2C(=O)C(C)(OC(=O)CCc3ccccc3)C(=O)C=C2C=C1c1ccc(C#N)cc1 (configuration not stated),-25.9%[59 µM],-16.6%,-6.9%[12.4 µM],-13.0%,86.0%[activator],28.3%,-4.9%[12.4 µM]
CCOCCCNCC(O)c1ccccc1 (configuration not stated),1.78µM*,-12.8%,2.1%,-0.7%,19.5%,24.7%,4.2%
O=C(/C=C/c1cccs1)c1cc(Cl)ccc1O,39.8µM*,-3.5%,-8.3%,-1.3%,6.2%,-1.0%,?

# Three entries from above, ordered by their value in BLM inh, high to low:
molecule	G9a block	POLH inh	BLM inh	POLK inh	POLI inh	APEX1 inh
CC(CN1CCOCC1)OC(=O)c1ccc(Br)cc1 (configuration not stated)	40.1%	-10.0%	-2.9%	1.8%	6.7%	1.1%
O=C(/C=C/c1cccs1)c1cc(Cl)ccc1O	39.8µM*	-3.5%	-8.3%	-1.3%	6.2%	?
CSc1ccc(-c2nc3c(C)cccn3c2Nc2ccc3c(c2)OCCO3)cc1	7.08µM*	-28.0%	-9.8%	0.0%	4.7%	nt

# The list goes on.
SMILES,G9a block,POLH inh,BLM inh,POLK inh,POLI inh,Pol beta inh,APEX1 inh
Cc1cc2c(cc1S(=O)(=O)N1CCN(c3ccc(Cl)cc3)CC1)OCCN2C,28.2µM*,-16.1%,-7.4%,-16.8%,-27.7%,-4.2%,18.1%
CC(/C=N\N1CCN(Cc2ccc(C)cc2)CC1)=C\c1ccccc1,?,-8.8%,4.6%,0.0%,26.9%,-1.4%,18.7%
C=CCNCC(=O)N1N=C(c2ccc3ccccc3c2)CC1c1ccc(OC)cc1 (configuration not stated),8.91µM*,-21.5%,-6.0%,-5.1%,103.5%[activator],20.1%,14.1%
COc1cc(C(=O)OCC(=O)Nc2nnc(-c3ccccc3)o2)cc(OC)c1OC,3.1%,-10.0%,nt,-10.8%,12.0%,nt,-11.9%
COc1cc(CNc2ncc(-c3ccc(Br)cc3)n2C)cc(OC)c1OC,25.1µM*,-2.9%,-9.1%,9.9%,3.1%,2.4%,-2.6%
Cc1cccc(OC(C)C(=O)Nc2ncn[nH]2)c1 (configuration not stated),-37.1%[59 µM],-12.1%,4.3%,-16.6%[60.1 µM],0.9%,-11.2%,nt
COc1cc2c(cc1OC)CN(Cc1ccc(C)s1)CC2,8.91µM*,-4.5%,-1.1%,-7.8%,1.4%,-10.0%,1.9%
COCCCNCCOCCOc1ccc(C)cc1[N+](=O)[O-],14.1µM*,5.0%,3.2%,-11.6%,9.4%,-3.2%,0.7%
COc1ccc(CN(C)CC(=O)Nc2ccc(Cl)cc2F)c(OC)c1,12.6µM*,31.5%[activator],-7.4%,-0.6%,1.5%,-8.0%,-2.3%
O=C(CN1CCCCC1)Nc1ccc(Br)cc1[N+](=O)[O-],?,-18.0%,-7.2%,-15.0%,79.2%[activator],25.3%,23.1%
Cc1ccc(O)c(NC(=O)c2cc(-c3ccc(F)cc3)no2)c1,8.91µM*,-9.9%,-8.6%,-17.3%,18.9%,0.8%,nt
O=C(CSc1ccc2nnc(-c3ccccn3)n2n1)NCC1CCCO1 (configuration not stated),?,-17.7%,-2.9%,-1.6%,81.8%[activator],16.4%,2.6%
Cn1c(N)c(C(=O)COC(=O)c2ccc(OC(F)F)cc2)c(=O)n(C)c1=O,22.6%[12.7 µM],4.7%,nt,-9.6%,92.2%[activator],nt,-7.6%
CC(=O)Nc1cc2c(cc1[N+](=O)[O-])-c1ccccc1C2O (configuration not stated),nt,-10.3%,nt,3.3%,?,nt,nt
O=C(CSc1ccc2nnc(-c3ccccn3)n2n1)Nc1ccccc1,71.1%[activator],-7.7%,-1.5%,-8.8%,35.5%[activator],38.9%,19.5%

# Reprinted from the listing, two compounds:
SMILES,G9a block,POLH inh,BLM inh,POLK inh,POLI inh,Pol beta inh,APEX1 inh
CC(=O)Nc1cc2c(cc1[N+](=O)[O-])-c1ccccc1C2O (configuration not stated),nt,-10.3%,nt,3.3%,?,nt,nt
O=C(CSc1ccc2nnc(-c3ccccn3)n2n1)Nc1ccccc1,71.1%[activator],-7.7%,-1.5%,-8.8%,35.5%[activator],38.9%,19.5%

# The list continues:
SMILES,G9a block,POLH inh,BLM inh,POLK inh,POLI inh,Pol beta inh,APEX1 inh
CN(CCOc1ccccc1)CC(=O)Nc1ccc(S(=O)(=O)N2CCCC2)cc1,nt,-18.8%,?,13.4%,34.1%[activator],?,0.9%
COc1ccc(NC(=O)CSc2ccc(-c3ccccn3)nn2)cc1OC,?,-19.5%,3.9%,-8.2%,97.7%[activator],19.0%,11.3%
O=S(=O)(c1ccc(Cl)cc1)N1CCC(N2CCOCC2)CC1,?,-7.5%,-1.1%,3.0%,-4.1%,14.4%,10.9%
COC(=O)C1C(O)=C(C=Nc2ccc3ccccc3c2)C(=O)CC1(C)C (configuration not stated),94.8%[activator],-8.8%,-4.7%,27.5%,39.4%[activator],1.8%,-1.2%
Cc1ccc(N=c2c([N+](=O)[O-])nn(-c3ccccc3)n2O)c(C)c1,?,-7.8%,-8.5%,-13.7%,0.6%,11.2%,13.5%
COc1cccc(CNCc2ccc3c(c2)OCO3)c1,22.4µM*,-4.1%,-3.4%,-6.8%,117.8%[activator],1.8%,3.2%
CC(C)(C)c1ccc(Cn2cnc(-c3ccc([N+](=O)[O-])cc3)c2)cc1,?,-25.7%,-8.4%,-5.1%,27.6%,0.7%,-5.0%
O=C(Nc1sc2c(c1C(=O)c1ccc(Cl)cc1)CCCC2)c1cccnc1,?,-16.9%,-7.1%,-4.4%,?,0.9%,2.2%
CCOC(=O)Cc1csc(NC(=O)CSc2nnc(Cc3csc(N)n3)n2C)n1,-25.2%[59 µM],-10.8%,-12.4%,-14.8%,8.5%,1.3%,?
CN1CCCN(Cc2ccc(Cl)cc2Cl)CC1,2.82µM*,-2.6%,7.5%,-2.9%,21.9%,?,-3.4%
